# Bioassay records deposited in PubChem by Fisher Drug Discovery Resource Center.
# NPYLR7 ag: agonists of mosquito NPYLR7 receptor, primary screen, cell-based, Aedes aegypti, calcium fluorescence, mosquito biting behavior; activation, % at 10 µM; 0.15% of 270,000 active; HEK293T NPYLR7/Galpha15, GCaMP6s calcium fluorescence; Aedes aegypti neuropeptide Y-like receptor 7 (NPYLR7); in the data active means activation above about 40%;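 further: 0% = vehicle and 100% = reference agonist at the receptor; some compounds past the cut are filed as inactive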
# NPYLR7 ag max-min: second read-out of NPYLR7 ag, no call of its own (marks repeat the call); activation, %; measured here: Max-Min RFU normalised activation; some inactives read as strong as hits;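 span of the calcium signal over five minutes; 0% = vehicle and 100% = native peptide agonist; compound fluorescence can raise it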
# The depositor's hits bear a star; & = joins results of further samples. This is a subset (hit frequency here may not be typical).
SMILES,NPYLR7 ag,NPYLR7 ag max-min
CCc1nn(-c2ccc(F)cc2)c(N2CCN(C(C)C)CC2)c1CN(CC(C)C)C(=O)c1ccc(F)cc1,-15,-5
CCCCN1CCCCC1CNC(=O)Nc1cccnc1 (stereo not given),8,5
Cc1cc(C)n(-c2ccccc2CN2CCCC(O)(CN(C)C)C2)n1 (stereo not given),0,-3
COc1ccc(CN(C(=O)c2cccs2)C2CC2)cc1OS(C)(=O)=O,-5,-5
Cc1c(C)n2c3c(=O)n(CC(N)=O)c(=O)n(C)c3nc2n1-c1ccc(N(C)C)cc1,-3,-4
COc1ccc(CCNC(=O)c2cc(-c3ccccc3Cl)nn2-c2ccc(F)cc2)cc1OC,0,7
Cc1nc(N2CCC(C(=O)NCc3cnn(C)c3)CC2)nc2ccc(C(C)C)cc12,4,3
COCC(=O)Nc1c(C)nc2ccccn2c1=O,8,3
CC1(C)CC(=O)C2=C(C1)CC1(C)CC(C)(C)CC2(O)C1 (stereo not given),-2,1
COCCn1cc(NC(=O)NC2CCCCC2C)c2ccccc21 (stereo not given),15,6
CC1CN(Cc2nc(N)c3c4c(sc3n2)CCCC4)CC(C)O1 (stereo not given),-14,-21
O=c1cc(COc2cccc(-c3nnc4n3CCCCC4)c2)nc2sccn12,3,0
CCOc1ccc(NC(=O)Cn2nc(SC)c(S(=O)(=O)c3ccc(C)cc3)c2N)cc1,-1,-7
CNc1ncccc1C(=O)N1CCN(Cc2ccc(C)cc2)C(=O)C1C (stereo not given),2,-1
O=C(O)c1ccccc1Nc1ccccc1,2&0,-6&-2
Cc1csc(CNC(=O)c2cc(F)ccc2N2CCOCC2)n1,1,-1
COc1cc(C(=O)N(C)c2nnc(C34CC5CC(CC(C5)C3)C4)s2)cc(OC)c1OC,-3,-4
CCCNC(=O)CC1Nc2cc(C)c(C)cc2NC1=O (stereo not given),-9,-16
Cc1oc(-c2ccsc2)nc1CSc1n[nH]c(N)n1,9,8
C=CCn1cc(CN2CCCC2c2c(C)noc2C)c(C)n1 (stereo not given),-4,-9
O=C(CCc1cn2ccccc2n1)NCc1cn[nH]c1-c1ccc(F)cc1,7,2
O=C(c1cc(F)ccc1Cl)N1CC(=O)N2CCc3c(F)cccc3C2C1 (stereo not given),-1,13
CCC(=O)N1CCN(C(=O)c2ccc(Cl)nc2C)CC1,5,3
Cc1nn(CC(=O)Nc2cc(C(F)(F)F)ccc2Cl)c(C)c1[N+](=O)[O-],16,10
COc1ccc(N2C(=O)C(c3c(C)[nH]n(-c4ccc(F)cc4)c3=O)=C([n+]3ccccc3)C2=O)cc1,6,6
CCCn1ccnc1CN(C)Cc1nc(-c2cccnc2)no1,2,3
NC(=O)c1c(NC(=O)CSc2nnnn2C2CC2)sc2c1CCC2,6,14
CCc1cc(Oc2ccc3c(c2)OCO3)nc(SCc2cccc(C(F)(F)F)c2)n1,17,9
Cc1ccccc1C1CCCN1CC(O)COCc1cccs1 (stereo not given),5,3
O=C(CCC(=O)NC1CCCC1)NC[C@H]1CCCC[C@H]1O,2,20

# The final two entries of the section above come first, to join the parts.
SMILES,NPYLR7 ag,NPYLR7 ag max-min
Cc1ccccc1C1CCCN1CC(O)COCc1cccs1 (stereo not given),5,3
O=C(CCC(=O)NC1CCCC1)NC[C@H]1CCCC[C@H]1O,2,20
CCc1c(C)nc(-n2nc(C)cc2NC(=O)c2ccc(F)c(F)c2)[nH]c1=O,10,2
CCOc1ccccc1N1CCN(C(=O)C2CCCC2)C(C)C1=O (stereo not given),-9,2
CC(=O)Nn1c(O)c(C2=c3cc(Br)ccc3=NC2=O)sc1=S,-6,-5
C=CCn1c(SCC(=O)N(CC)CC)nc2c([nH]c3ccccc32)c1=O,0,-1
O=C(c1ccc2ccccc2c1)C1CCCN(C(=O)c2ccccn2)C1 (stereo not given),6,4
O=C(Nc1cnns1)c1cccc(CN2CCN(CC3CCCO3)CC2)c1 (stereo not given),13,4
COc1cccc(C(=O)Nc2c3c(nn2-c2ccc(C)cc2)CS(=O)(=O)C3)c1OC,-3,-2
CC1CCC(C)N1CCN1CCN(C(=O)Nc2cccc(F)c2)CC1 (stereo not given),8,4
Cc1cc(NC(=O)CSc2nnc(C)n2C2CCCCC2)no1,0,6
O=C(Cc1ccc(Cl)c(Cl)c1)NCCc1ccco1,3,1
Cn1c(CN2CCC(OCc3cccnc3)CC2)cc2ccccc21,-15,-19
CCCCn1c(SCCOc2ccccc2C(C)=O)n[nH]c1=O,-1,-6
O=C(CC(c1cccc([N+](=O)[O-])c1)c1c[nH]c2ccccc12)N1CCN(c2ccccc2F)CC1 (stereo not given),3,18
C=CCN1CCN(c2cc(Oc3ccccc3C)ncn2)CC1,7,11
CC1(C)O[C@@H]2C[C@@](OCc3ccccc3)(C(=O)NCCCn3ccnc3)CC(OCC3CC3)[C@@H]2O1 (stereo not given in full),18,29
CCOC(=O)C1(CCc2ccccc2)CCN(C(=O)c2cccc(C)n2)CC1,5&11,-1&11
COc1ccc(CN2CCC(C(=O)NC(c3ccc(F)cc3)c3ccc4ccccc4n3)CC2)cc1 (stereo not given),7,3
c1coc(CN2CCN(C3CCCCCC3)CC2)c1,-4,-2
CCn1c(=O)[nH]c2cc(C(=O)NCCc3ccncc3)ccc2c1=O,-12,-11
CC1CCC2C(CCCN2S(=O)(=O)c2c[nH]c(C(=O)N3CCCC3)c2)C1 (stereo not given),3,1
Cc1ccc(Cl)cc1NS(=O)(=O)c1cc2c3c(c1)CCN3C(=O)CC2,5,2
COc1cc(C(=O)N=Nc2c(O)[nH]c3c(C)c(C)ccc23)cc(OC)c1OC,-2,-7
Cc1cccc(C(C)(C)CNC(=O)Cc2cc3ccccc3[nH]c2=O)c1,-5,-6
CSc1ccc(CN(C)c2ncccc2C(N)=O)cc1,11,4
Cc1ccc(-n2cc(CNCCCN3CCCC3=O)c(-c3ccc(F)cc3)n2)cc1,0,-4
CCOC(c1ccccc1)c1ccc2c(c1)CN(Cc1ccc(C#CC(C)(C)O)cc1)CCO2 (stereo not given),5,-3
Cc1cc(C)n(-c2ccc([N+](=O)[O-])cc2[N+](=O)[O-])n1,4,7
COc1ccc(C(=O)N[C@@H]2CCCCC2NC(=O)C2CCCN(C(=O)COc3ccccc3)C2)cc1 (stereo not given in full),-1,8
O=C(Nc1nncs1)c1ccc(C2CCCCC2)cc1,1,0
NC(=O)c1ccc(CSc2nnc(-c3ccccc3Cl)n2-c2ccc(F)cc2)cc1,8,-2

# The last seven records of the section above are carried over, then new ones follow:
SMILES,NPYLR7 ag,NPYLR7 ag max-min
CSc1ccc(CN(C)c2ncccc2C(N)=O)cc1,11,4
Cc1ccc(-n2cc(CNCCCN3CCCC3=O)c(-c3ccc(F)cc3)n2)cc1,0,-4
CCOC(c1ccccc1)c1ccc2c(c1)CN(Cc1ccc(C#CC(C)(C)O)cc1)CCO2 (stereo not given),5,-3
Cc1cc(C)n(-c2ccc([N+](=O)[O-])cc2[N+](=O)[O-])n1,4,7
COc1ccc(C(=O)N[C@@H]2CCCCC2NC(=O)C2CCCN(C(=O)COc3ccccc3)C2)cc1 (stereo not given in full),-1,8
O=C(Nc1nncs1)c1ccc(C2CCCCC2)cc1,1,0
NC(=O)c1ccc(CSc2nnc(-c3ccccc3Cl)n2-c2ccc(F)cc2)cc1,8,-2
Cc1ccc(C(=O)CSc2nnc(NC(=O)c3cccc([N+](=O)[O-])c3)s2)c(C)c1,23,20
Cc1noc(C)c1CN(C)CC(=O)Nc1ccccc1Cl,5,5
CCN1CCC(N(C)Cc2ncc(-c3cccs3)o2)CC1,1,1
Cc1cnccc1NCCn1ccnc1-c1nc[nH]c1C,10,7
O=C(CCC1CCCC1)N1CCN(c2ncnc3c2nnn3Cc2ccccc2)CC1,-10,-14
Cc1cnc(C)c(-c2cccc3c2OC(CNC(=O)c2ccc4nc(C)[nH]c4c2)C3)n1 (stereo not given),27,24
CCCNC(=O)C(NC(=O)c1cccc(C)c1)C1CCN(S(=O)(=O)c2ccc(Cl)cc2)CC1 (stereo not given),-11,-9
O=c1c(SCc2ccc(F)cc2)nccn1-c1ccc2c(c1)OCCO2,20,26
COCCN(CC(=O)N(CCc1c[nH]c2ccccc12)Cc1ccc(C(F)(F)F)cc1)C(=O)N(C)C,-6,5
CCc1ccc(S(=O)(=O)NCC(c2cccn2C)N2CCc3ccccc3C2)s1 (stereo not given),1,1
CCOCCOc1nc(-c2cccc(C(F)(F)F)c2)n(-c2ccc(NC(=O)COC)cc2)n1,1,3
CCc1nnc(CNc2ccccc2C(=O)Nc2ccc(Cl)cc2)o1,1,1
CC1C(=O)N(c2ccc(F)c(Cl)c2)CCN1C(=O)c1cccc(F)c1 (stereo not given),-3,1
CCc1ccccc1-c1ccnc(CO)c1,-1,0
CCOC(=O)CCNC(=O)C1=CN2CCN(Cc3cscn3)C(=O)N=C2O1,4,2
CC(=O)NCc1ccc(C(=O)Nc2ccccc2Oc2ccccc2)cc1,16,11
O=C1C[C@H]2C[C@@H](c3ccccc3)OC[C@]23NC(=NCc2ccccc2)S[C@H]13,5,9
CCCc1nn(-c2ccccc2Cl)c(C)c1C(=O)NCC1CCCO1 (stereo not given),3,17
Cc1cc(C)c(NC(=O)CN(Cc2cccs2)CC2CCCO2)c(C)c1 (stereo not given),7,6
CC1CCCN(C(=O)CN2C(=O)NC3(CCCCC3C)C2=O)C1 (stereo not given),-1,19
CC(C)C(=O)N1CCN(C(=O)C2(N(C)C)CCc3ccccc32)CC1 (stereo not given),4,1
COc1ccc(OCC(=O)Oc2coc(CSc3nccc(C)n3)cc2=O)cc1,-10,-7
Cn1c(=O)c(C2CC(=O)NCc3nc4ccccn4c32)cc2ccccc21 (stereo not given),16,1
COCC(c1ccnn1C)n1cc(-c2ccc3c(c2)OCCO3)nn1 (stereo not given),13,10
O=C(O)c1cccc(CSc2nc(Cl)cc(N3CCN(c4cccc(Cl)c4)CC3)n2)c1,22,17
Cc1ccc(-c2nc(CN3CCCCC3CCN3CCCC3=O)c(C)o2)o1 (stereo not given),2,1
Cc1ccc(NC(=O)N2CCn3cccc3C2c2ccncc2)cc1 (stereo not given),12,5
CCN(C(=O)c1[nH]c2ccc(Br)cc2c1Cl)C1CCS(=O)(=O)C1 (stereo not given),-3,-4
Cc1cnc(NC(=O)c2cccnc2Sc2ccc3c(c2)OCCO3)s1,3,2
COc1cc(F)c(-c2nccn2C(C)CCn2cccn2)c(F)c1 (stereo not given),-1,-7
Cc1sc(NC(=O)c2ccccc2SCC(N)=O)nc1-c1ccc(Cl)cc1,0,46
COc1ccc(-n2ncc3c2CCN(C(=O)c2cc(C)n(C)n2)C3)cc1,-1,21
COc1cccc(OC)c1C(=O)N1CC(=O)N(CCOc2ccccc2)CC(O)C1 (stereo not given),20,29
CCOc1ccc(-c2cc3c(=O)n(CC(=O)NCCc4ccccc4)ncn3n2)cc1,-12,-17
COCCNC(=O)[C@@]1(OCc2cccc(F)c2)CC(OCc2ccc(C)cc2)[C@H](O)[C@H](O)C1 (stereo not given in full),3,11
CC(C)c1ccc(C2C(C#N)C(=N)SC(=N)C2C#N)cc1 (stereo not given),8&9,3&7
Cc1nc2[nH]n(C)c(=O)c2c(C)c1CCC(=O)Nc1cccc(F)c1,-8,-9
O=c1oc2ccccc2o1,10,10
Cc1ccc(C)c(N2CCn3c2nc2c3c(=O)n(CCC(C)C)c(=O)n2C)c1,-1,-3
Fc1ccc(-c2cnc(CN3CCN(c4cccc(Cl)c4)CC3)o2)cc1,1,4
Cc1cc(SCC(=O)c2cccs2)n2nc(C)c(-c3ccccc3)c2n1,-3,-6
Cc1ccc(NC(=O)CN2C(=O)c3ccccc3C2=O)cc1C,-3,-12
CN(C)CCN(C(=O)CCc1ccccc1)c1nc2c(F)cc(F)cc2s1,-7,-13
CC(=O)c1c(C)oc2c1cc(NS(=O)(=O)c1cc(C)ccc1C)c1ccccc12,-3,-8
CCc1cccc(CC)c1NC(=O)CSc1nc2ncccn2n1,6,5
CSc1ccc(C(=O)N2CCC3(CCCN(CC4CC4)C3)C2)cc1 (stereo not given),23,11
O=C(Cn1c(-c2ccc(F)cc2)nc2c(c1=O)CCN(Cc1ccccc1)C2)NC1CCCCC1,-2,-4
CCCc1cc(=O)oc2cc(OC(C)C)c(Cl)cc12,7,5
COC(=O)[C@H](Cc1c[nH]c2ccccc12)n1cc2ncccc2c1O,24,14
O=C(Cc1ccc(F)cc1)NCCc1nnc2n1CCN(Cc1c(F)cccc1F)CC2,25,18
NC(=O)[C@@H](Cc1ccccc1)NC(=O)[C@@H]1C[C@@H](NC(=O)c2cnccn2)CCN1C(=O)CSCC(=O)O,-11,-16
CCC(=O)C1=C(c2ccc(OC)cc2)N(C(=O)CC)n2c(nnc2-c2ccccc2)S1,2,3
CC(C)(C)Cc1nnc(C2CCCN(C(=O)NC3CCCCC3)C2)o1 (stereo not given),-4,2
O=C(NCCn1nc(-c2ccco2)ccc1=O)C1c2ccccc2Oc2ccccc21,-2,-4
CCOc1nn(CC)cc1C(=O)Nc1cccc(C(C)=O)c1,1,7
C=CCn1c(SCc2ccc(Cl)c(Cl)c2)nnc1-c1ccc(OC)cc1,23,35
O=C(O)C(Oc1ccc(Cl)cc1)c1ccccc1 (stereo not given),7,5
O=C(CN1CCCCC1=O)Nc1cccc(CC(F)(F)F)c1,-5,-6

# Profiles as entered above.
# Entry for `O=C(Cn1c(-c2ccc(F)cc2)nc2c(c1=O)CCN(Cc1ccccc1)C2)NC1CCCCC1` → NPYLR7 ag = -2; NPYLR7 ag max-min = -4
# Entry for `O=C(O)C(Oc1ccc(Cl)cc1)c1ccccc1` (stereo not given) → NPYLR7 ag = 7; NPYLR7 ag max-min = 5
